# Beta2AR agonist = activates human beta-2 adrenergic receptor causing internalization; Am2.2-beta2AR cells, FAP receptor internalization, flow cytometry; reference of the scale not given here; response, % (no concentration beside the values); 0.43% of 340,000 active;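 active means response above a set limit, near 3 SD of response in nonfluorescent compounds, cut at about 42% in these data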;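 further: stock transfer was 100 nL into about 11 µL; a reference agonist was the positive control; negative values mostly stem from fluorescent compounds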
# Target sequence (P07550 whole entry, looked up): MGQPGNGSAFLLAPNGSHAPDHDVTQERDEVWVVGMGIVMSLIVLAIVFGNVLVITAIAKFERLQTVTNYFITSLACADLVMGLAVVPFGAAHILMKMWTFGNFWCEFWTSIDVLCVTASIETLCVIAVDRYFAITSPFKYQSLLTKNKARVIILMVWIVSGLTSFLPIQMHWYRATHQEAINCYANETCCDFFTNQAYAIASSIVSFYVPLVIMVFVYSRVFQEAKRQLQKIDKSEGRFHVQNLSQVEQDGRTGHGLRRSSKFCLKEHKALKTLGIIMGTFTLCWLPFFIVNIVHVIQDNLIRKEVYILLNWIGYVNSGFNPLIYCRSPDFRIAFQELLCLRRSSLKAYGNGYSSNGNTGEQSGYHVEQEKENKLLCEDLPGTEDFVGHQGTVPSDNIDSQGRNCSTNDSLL
# Calb FLC = C. albicans growth modulation with fluconazole; 0.57% of 300,000 active; growth inhibition, % (test concentration not listed); C. albicans CaCi-2 (fluconazole-resistant clinical isolate) + fluconazole, Alamar Blue growth, 48 h;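 active means most replicates above 75%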;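 further: all wells also contain fluconazole at 8 µg/ml as a sub-toxic cotreatment; 0% = median of DMSO wells and 100% = median of geldanamycin control wells; wells of about 8 µL received 7.5 nL stock; the first replicate is given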
# T cruzi inh = blocks replication of Trypanosoma cruzi | T. cruzi beta-gal in NIH3T3, luminescence, 90 h | 1.4% of 300,000 active | inhibition, % (test concentration not listed);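 active means mean inhibition across valid replicates above about 55%, limit read from the data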;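 further: signal also drops with host cell toxicity which is not excluded here; 0% = plate median of DMSO wells and 100% = zero luminescence signal; higher percent means less beta-gal luminescence so fewer parasites; stock transfer was 50 nL into about 50 µL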
# Ecoli rRNA inh = selective bacterial rRNA inhibition in E. coli; E. coli WT GFP vs humanized-ribosome RFP mutants, fluorescence, 24 h; stronger effect = lower value; DMSO median 0, no signal -100; GFP signal change (wild-type ribosome), % (test concentration not listed); 1.6% of 350,000 active;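 active means significant combined selectivity score with lowered wild-type GFP, culture density cut under 30%, mutant RFP and density less affected; inactive means any of these conditions unmet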; further: one replicate is shown; some compounds called inactive have numbers as strong as hits
# Beta cell apopt = blocks beta cell apoptosis | INS-1E cytokine-induced death, ATP luminescence, 48 h; percent of positive-control rescue, neutral wells zero | protection from apoptosis, % (concentration not given with the values) | 0.8% of 300,000 active;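 active means all replicates at 75% or more, or half of them and the mean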;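 further: 0% = cytokine-treated negative control wells and 100% = positive control rescue; higher means more ATP so stronger rescue from cytokine killing; wells of about 40 µL received 100 nL stock; the first replicate is given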
# A1 inh = inhibitors of the anti-apoptotic protein A1, read as caspase activation. MEF A1-2A-BIM cells, Caspase-Glo 3/7 luminescence, 3 h; percent of clofoctol response, vehicle zero. caspase activation, % (test concentration not listed). 0.066% of 330,000 active. AID 2462;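 active means over half of replicate activation scores above 10%, or exactly half above 10 with the replicate mean above 10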;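 further: wells of about 30 µL received 50 nL stock; many hits fall short of the cut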
# ALR H2O2 inh = blocks human ALR sulfhydryl oxidase activity. inhibition, % (concentration not given with the values). P55789. 3.8% of 290,000 active. purified ALR, DTT oxidation, H2O2 HRP-luminol luminescence. AID 485317;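 active means mean and each replicate at 75% or more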;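 further: stock transfer was 7.5 nL into about 7.5 µL; 0% = neutral wells and 100% = wells with inactivated enzyme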
# Target sequence (P55789 whole entry, looked up): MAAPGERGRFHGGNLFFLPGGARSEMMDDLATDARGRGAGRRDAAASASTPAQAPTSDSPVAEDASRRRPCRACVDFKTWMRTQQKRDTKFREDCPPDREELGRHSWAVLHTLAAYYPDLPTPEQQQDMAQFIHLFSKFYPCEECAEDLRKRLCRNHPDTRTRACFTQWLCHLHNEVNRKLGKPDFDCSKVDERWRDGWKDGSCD
# LANA-H2B inh = blocks KSHV LANA binding to histone H2A/H2B; cell-free LANA-H2A/H2B peptide, fluorescence polarization; 0.6% of 320,000 active; AID 2629; Q9QR71; inhibition, % (test concentration not listed); in the data active means inhibition mostly above about 10%, no sharp cut-off; inactive means mostly below about 6.7%;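 further: stock transfer was 7.5 nL into about 10 µL; 0% = median of vehicle wells and 100% = median of positive control wells; one replicate is shown; the record names a cut of 25% in any replicate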
# Ecoli rRNA inh OD600 = also measured in Ecoli rRNA inh; calls as there; OD600 change, %; measured here: OD600 growth;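 optical density of the mix in the first replicate; 0 = DMSO median and -100 = no signal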
# Ecoli rRNA inh RFP = also measured in Ecoli rRNA inh; calls as there; RFP signal change, %; measured here: RFP humanized mutant strains;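 first replicate; 0 = DMSO median and -100 = no signal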
# The depositor's hits bear a star; . = not tested or not shown. This is a subset, so the mix of outcomes need not match the whole.
no.	canonical_smiles	Beta2AR agonist	Calb FLC	T cruzi inh	Ecoli rRNA inh	Ecoli rRNA inh OD600
1	CCCCOc1cccc(C2/C(=C(\O)c3ccc4c(c3)OCCO4)C(=O)C(=O)N2CCN2CCOCC2)c1 (stereo unspecified)	4	4	-13	10	16
2	COC(=O)CCCC1=CC2=C(c3ccccc3)C(=O)C(C)(OC(=O)C3CCCC3)C(=O)C2=CN1CC(C)C (stereo unspecified)	-7	13	-1	13	12
3	CCNC(=S)N1CCC(Cc2ccccc2)CC1	-5	-1	-6	5	3
4	CCOc1cc2[nH]c(=S)n(CCN3CCC(C)CC3)c(=O)c2cc1OCC	21	-8	-3	-5	14
5	COc1cc(N/N=C(\C)c2ccc(N)cc2)nc(-c2ccccc2)n1	0	5	24	0	-3
6	CC(=O)N1CCOc2ccc(S(=O)(=O)N3CCCC(C)C3)cc21 (stereo unspecified)	13	7	-14	-6	4
7	COc1ccc(-n2c(N)cc(=O)nc2SCC(=O)N2CCN(c3ccccc3)CC2)cc1	-2	0	0	3	-1
8	Cc1ccc(-c2csc(N/N=C/c3ccco3)n2)cc1	-4	44	19	.	.
9	COc1cccc(C(CC(=O)O)NS(=O)(=O)c2ccc3c(c2)N(C(C)=O)CC(C)O3)c1 (stereo unspecified)	1	-18	-6	9	10
10	Nc1nc(CSc2nnnn2-c2ccc(Cl)cc2)nc(N2CCOCC2)n1	-7	6	-3	.	.
11	CCS(=O)(=O)N1CCC(c2nc3ccccc3[nH]2)CC1	-4	-23	3	9	10
12	CCN(CC)C(=O)C1CCCN(Cc2ccccc2F)C1 (stereo unspecified)	2	15	-17	.	.

no.	Ecoli rRNA inh RFP	Beta cell apopt	A1 inh	ALR H2O2 inh	LANA-H2B inh
1	-2.0	-14	0.8	3	2.3
2	3.6	0	0.8	.	-2.7
3	0.9	-2	-1.0	-9	0.9
4	-1.6	-5	0.7	16	-1.8
5	-2.0	5	1.6	98*	0.6
6	2.7	-2	0.9	-2	5.5
7	2.7	-1	0.3	99*	0.0
8	.	3	1.6	-2	1.0
9	-2.2	-3	1.1	3	-3.4
10	.	1	0.3	0	-0.8
11	1.3	-2	2.1	-6	2.9
12	.	1	1.2	-10	6.2

# Next section
no.	canonical_smiles	Beta2AR agonist	Calb FLC	T cruzi inh	Ecoli rRNA inh	Ecoli rRNA inh OD600
13	CC(C)CCNC(=O)C1CCN(S(=O)(=O)c2ccc(-n3cnnn3)cc2)CC1	0	4	-1	2	5
14	Cc1nc(N)nc(C)c1Cc1ccccc1	-3	-1	-17	.	.
15	O=C(CNC(=O)c1ccccc1)NCc1ccc(Cl)cc1	-2	0	-12	5	8
16	Oc1ccccc1C1Nc2cccc3cccc(c23)N1	-3	1	4	.	.
17	CCC(C)NC(=O)CSC1=Nc2ccccc2C2=NC(c3ccccc3)C(=O)N12 (stereo unspecified)	-3	-2	15	.	.
18	O=C(Nc1ccc2c(c1)C(=O)N(CC1CCCO1)C2=O)c1ccc(Cl)c(Cl)c1 (stereo unspecified)	0	-10	8	.	.
19	Cc1cc(C)n2nc(SCc3nnc(SCc4ccccc4)s3)nc2n1	-15	-12	6	.	.
20	CCOC(=O)COn1c(=O)c(-c2ccc(Br)cc2)[n+]([O-])c2ccccc21	4	0	-19	-1	5
21	N#Cc1nc(-c2ccccc2F)oc1N1CCCCC1	-1	9	-7	-14	-10
22	OCCC1CN(Cc2cnc(-c3ccccc3)s2)CCN1Cc1ccccc1 (stereo unspecified)	-7	-25	42	-25	-26
23	CN(C)CCNc1nc2sc3c(c2c(=O)n1-c1ccc(F)cc1)CCCCC3	0	-5	42	-6	-6
24	O=C(Cn1ccc(NC(=O)OCc2ccccc2)nc1=O)NCc1ccc2[nH]ccc2c1	-4	.	.	14	21

no.	Ecoli rRNA inh RFP	Beta cell apopt	A1 inh	ALR H2O2 inh	LANA-H2B inh
13	0.4	2	0.7	3	-5.0
14	.	-10	-0.7	2	3.5
15	-8.2	-1	0.2	.	2.1
16	.	3	1.2	-14	-2.2
17	.	0	-0.3	-9	-2.0
18	.	.	0.2	-3	-4.8
19	.	-20	0.6	-2	0.8
20	-2.5	-3	0.2	-6	-0.4
21	-0.5	-1	1.7	-8	6.2
22	0.4	5	0.2	-11	2.0
23	2.4	3	0.9	-2	-3.9
24	-8.5	1	1.3	-5	-3.1

# Remaining list, next part.
no.	canonical_smiles	Beta2AR agonist	Calb FLC	T cruzi inh	Ecoli rRNA inh	Ecoli rRNA inh OD600
25	Cc1cccc(-c2noc(CNC(=O)COc3ccccc3C)n2)c1	-1	-2	-3	-12	-25
26	Cc1cc2c(cc1S(=O)(=O)NCC(C)c1ccccc1)n(C)c(=O)c(=O)n2C (stereo unspecified)	-3	21	-1	-11	-8
27	CSc1nsc(SCC(=O)Nc2ccc(C(=O)O)cc2)n1	-3	-1	-2	1	6
28	CCn1cc(C(=O)NC2CCCCCC2)c2cc(OC)c(OC)cc2c1=O	-5	8	11	.	.
29	O=C(CSc1nnc2ccccn12)NC(=O)NC1CCCC1	13	-13	0	19	3
30	COc1ccc(S(=O)(=O)N2CCOCC2)cc1NC(=O)Cn1nnc2ccccc2c1=O	1	2	6	16	6
31	CS(=O)(=O)c1ccc(C(=O)OCc2nnc(-c3ccc(Cl)cc3)o2)cc1[N+](=O)[O-]	93*	3	10	.	.
32	Cc1ccc(NC(=O)NC(=O)CN2CCC(C(N)=O)CC2)c(C)c1	-7	.	.	-1	4
33	CCC(C)NC(=O)C1CCN(S(=O)(=O)N2CCOCC2)CC1 (stereo unspecified)	-2	5	-10	6	13
34	CC[C@@]1(C(=O)OC)N[C@H](CN(C)C(=O)Nc2ccc(C)cc2)[C@@H]2C(=O)N(C)C(=O)[C@@H]21	0	.	.	8	2
35	CC12C(=O)N(c3ccc(OC(=O)c4ccco4)cc3)C(=O)C1C1c3ccccc3C2c2ccccc21 (stereo unspecified)	5	2	7	.	.
36	CCCC1S/C(=N/N=C/c2ccc(C)cc2)N(Cc2ccc(OC)cc2)C1=O (stereo unspecified)	4	0	23	.	.

no.	Ecoli rRNA inh RFP	Beta cell apopt	A1 inh	ALR H2O2 inh	LANA-H2B inh
25	-3.4	-2	-0.1	2	-3.4
26	-0.3	9	0.0	1	-4.0
27	2.6	.	-1.4	61	3.0
28	.	10	-1.7	-4	4.8
29	1.4	2	0.9	.	-5.0
30	0.3	0	0.6	-26	-1.9
31	.	-15	0.6	9	-6.5
32	-11	1	1.6	-2	-2.8
33	2.3	-7	-0.1	-15	0.0
34	-2.1	1	-0.5	.	-0.1
35	.	-14	-0.3	0	-2.1
36	.	3	0.3	-1	4.5

# Further entries.
no.	canonical_smiles	Beta2AR agonist	Calb FLC	T cruzi inh	Ecoli rRNA inh	Ecoli rRNA inh OD600
37	COc1ccccc1-c1ccc(SCc2ccc(F)cc2)nn1	2	-8	14	-31*	-3.3*
38	C/C(=N\O)c1ccc2c(c1)CC(C)O2 (stereo unspecified)	0	13	-7	8	-13
39	O=C(CCn1nc(-c2ccccc2)ccc1=O)N1CCN(c2ccccn2)CC1	-17	-2	9	.	.
40	NC(=O)c1cnn2c(-c3ccc(Cl)cc3Cl)ccnc12	8	2	-12	.	.
41	COc1ccc(CNC(=S)NC2CCCCC2)cc1	-8	-7	2	-1	1
42	CC(=O)Nc1ccc(NC(=O)CN2C(=O)COc3ccc(S(=O)(=O)N4CCCCC4)cc32)cc1	0	-3	-8	3	6
43	COCC(=O)NC1(c2nnnn2CCOC(=O)Nc2ccc(Cl)cc2)CCCCC1	6	-5	-6	-28	-37
44	CN(C(=O)c1cccc(N2C(=O)C3C4C=CC(C4)C3C2=O)c1)C1CCCCC1 (stereo unspecified)	-4	-7	-1	-1	9
45	Cc1cc(C)cc(NC(=O)CCCCCN2C(=O)[C@@H]3Cc4ccccc4CN3C2=O)c1	8	-4	0	-2	1
46	CCOC(=O)C1CCN(C(=S)NC2CCCC2)CC1	6	8	-25	-1	7
47	Cc1oc(-c2ccccc2F)nc1CS(=O)CC(=O)NC1CCCC1 (stereo unspecified)	-3	-1	15	0	12
48	CCC(C)[C@H](NC(=O)N1CC(=O)Nc2ccccc21)C(=O)NC(C)CCc1ccccc1 (stereo partly specified)	-4	8	9	-1	-2

no.	Ecoli rRNA inh RFP	Beta cell apopt	A1 inh	ALR H2O2 inh	LANA-H2B inh
37	-6.1*	0	-0.4	0	1.3
38	-2.0	-14	-0.9	.	0.1
39	.	0	-0.5	3	1.3
40	.	-3	0.6	.	-2.7
41	2.2	-11	0.5	-1	0.2
42	-0.5	-1	0.7	-3	2.5
43	-6.4	7	1.3	-25	-0.3
44	1.4	5	0.5	-1	-2.2
45	0.6	2	0.1	-2	0.7
46	-2.0	-1	0.5	6	0.1
47	0.9	5	-1.1	99*	-0.5
48	-0.7	2	-0.1	-19	-0.6

# (listing goes on)
no.	canonical_smiles	Beta2AR agonist	Calb FLC	T cruzi inh	Ecoli rRNA inh	Ecoli rRNA inh OD600
49	CC(=O)Nc1ccc(NC(=O)CN2CCN(c3cccc(C(F)(F)F)c3)CC2)cc1	-7	-16	7	.	.
50	COc1ccc2c(Cl)c(C(=O)N/N=C/c3ccncc3)sc2c1	1	-2	2	2	12
51	O=C(NCCCN1CCCC1=O)c1ccc(Cl)c(Cl)c1	-41	0	-24	6	11
52	Cc1ccc2oc(=O)c(-c3ccc(O)cc3)c(C)c2c1	0	.	.	-37	-45
53	C=CCN(CC=C)C(=S)Nc1ccc2nsnc2c1	-2	9	-4	-30	-40

no.	Ecoli rRNA inh RFP	Beta cell apopt	A1 inh	ALR H2O2 inh	LANA-H2B inh
49	.	1	-1.0	-25	-1.2
50	-3.6	1	-0.2	.	3.8
51	4.8	-2	0.7	0	-0.3
52	-4.1	1	1.3	.	0.6
53	-5.7	2	0.1	-34	0.5

# High-throughput results (PubChem)
